NOMO-1 viab = STK33 inhibitor candidate reducing NOMO-1 cell viability. NOMO-1 AML viability, CellTiter-Glo luminescence, 72 h. inhibition, % (concentration not given with the values). AID 2330. actives 7.5% (n = 37,000);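 active = most replicates above 80%; inconclusive = exactly half above 80%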;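 note: wells of about 30 µL received 25 nL stock; 0% = median of vehicle wells and 100% = reference inhibitor level; the first replicate is given; inactives centre near 10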
* = called active by the depositor; ? = inconclusive. Only part of the results is shown (hit frequency here may not be typical).

SMILES | NOMO-1 viab
C[C@H]1CN([C@@H](C)CO)C(=O)c2cc(NS(C)(=O)=O)ccc2O[C@@H]1CN(C)C(=O)Nc1ccc2c(c1)OCO2 | 18
CN(C)CCC=C1c2ccccc2C=Cc2ccccc21 | 37
C[C@@H]1CN([C@@H](C)CO)C(=O)c2cccc(NC(=O)NC3CCCCC3)c2O[C@@H]1CN(C)Cc1ccncc1 | 18
CC(=O)Nc1ccccc1-c1nc2ccccc2nc1OCc1ccc([N+](=O)[O-])cc1 | 13
C[C@H](CO)N1C[C@H](C)[C@@H](CN(C)C)Oc2ccc(NC(=O)CCC(F)(F)F)cc2C1=O | 7
COc1ccc(NC(=O)N(C)C[C@@H]2Oc3ccc(NS(=O)(=O)c4ccc(C)cc4)cc3CC(=O)N([C@H](C)CO)C[C@@H]2C)cc1 | 9
C[C@H](CO)N1C[C@H](C)[C@H](CN(C)S(=O)(=O)c2ccccc2)Oc2c(NC(=O)NC3CCCCC3)cccc2C1=O | 52
C[C@@H]1CN([C@H](C)CO)C(=O)c2cc(NS(=O)(=O)c3ccc(F)cc3)ccc2O[C@@H]1CN(C)C(=O)Nc1ccccc1 | 8
C[C@@H]1CN([C@@H](C)CO)C(=O)Cc2cc(NS(=O)(=O)c3ccccc3)ccc2O[C@@H]1CN(C)CC1CCCCC1 | 24
N#CCCN(CC1CCCO1)C(=S)NC1CC2C=CC1C2 (configuration not stated) | 21
Cc1c(CCC(=O)O)c(=O)oc2cc(O)c(Cl)cc12 | 12
Cc1noc(C)c1S(=O)(=O)Nc1ccc2c(c1)C(=O)N([C@H](C)CO)C[C@H](C)[C@H](CN(C)C(=O)Nc1ccccc1)OCCCC[C@@H](C)O2 | 2
C[C@@H]1CN([C@H](C)CO)C(=O)c2cccc(NS(=O)(=O)c3cccs3)c2O[C@@H]1CN(C)Cc1ccc(Oc2ccccc2)cc1 | 41
CC(C)NC(=O)N(C)C[C@@H]1Oc2ccc(NS(=O)(=O)c3cccs3)cc2C(=O)N([C@H](C)CO)C[C@H]1C | 9
CC(C)NC(=O)N(C)C[C@H]1Oc2c(NS(=O)(=O)c3cccs3)cccc2C(=O)N([C@H](C)CO)C[C@@H]1C | -17
COc1ccc(S(=O)(=O)Nc2ccc3c(c2)CC(=O)N([C@H](C)CO)C[C@@H](C)[C@@H](CN(C)Cc2ccccc2)O3)cc1 | 17
COc1ccc(NC(=O)N(C)C[C@@H]2Oc3ccc(NC(=O)C4CCCCC4)cc3CC(=O)N([C@H](C)CO)C[C@H]2C)cc1 | -12
C[C@H]1CN([C@@H](C)CO)C(=O)c2cc(NS(=O)(=O)c3ccc(Cl)cc3)ccc2O[C@@H]1CN(C)C(=O)Nc1cccc2ccccc12 | 15
c1ccc(C2C3=C(CCCC3)SC3=C2CCCC3)cc1 | 98*
COc1ccc(S(=O)(=O)N(C)C[C@@H]2Oc3ccc(NS(=O)(=O)c4c(C)noc4C)cc3C(=O)N([C@@H](C)CO)C[C@@H]2C)cc1 | 6
CCc1ccc2nc(N3C(=O)C(=O)C(C(=O)c4ccco4)C3c3cc(OC)ccc3OC)sc2c1 (configuration not stated) | 25
COc1ccc(I)cc1C(Nc1cc(C)ccn1)c1ccc2cccnc2c1O (configuration not stated) | 111*
CSc1sc(C#N)c(C)c1C(=O)/C=C/N(C)C | -8
Cc1noc(C)c1NC(=O)Nc1ccc2c(c1)C(=O)N([C@H](C)CO)C[C@H](C)[C@H](CN(C)Cc1ccc(C(=O)O)cc1)OCCCC[C@@H](C)O2 | -13
COC(=O)/C(=C/c1ccccc1)c1ccccc1 | 14
Cc1ccc(-n2c(SCC(=O)Nc3cccc(C)c3C)nc3ccccc3c2=O)cc1 | 15
CN1CCN(CCN2C(=O)c3ccccc3Sc3cc(Cl)ccc3S2(=O)=O)CC1 | -34
COc1ccc(S(=O)(=O)NCCOc2ccccc2)cc1OC | 13
Cc1ccc(-n2c(SCC(=O)Nc3ccc(F)c(F)c3)nnc2-c2ccc(Cl)cc2)cc1 | ?
COc1ccc(-c2nnc(SCC(=O)Nc3cccc(C(F)(F)F)c3)n2-c2ccccc2)cc1 | ?

Single entries from above:
Value for CN1CCN(CCN2C(=O)c3ccccc3Sc3cc(Cl)ccc3S2(=O)=O)CC1 under NOMO-1 viab: -34
Value for CSc1sc(C#N)c(C)c1C(=O)/C=C/N(C)C under NOMO-1 viab: -8
Value for C[C@H](CO)N1C[C@H](C)[C@H](CN(C)S(=O)(=O)c2ccccc2)Oc2c(NC(=O)NC3CCCCC3)cccc2C1=O under NOMO-1 viab: 52
Value for CC(=O)Nc1ccccc1-c1nc2ccccc2nc1OCc1ccc([N+](=O)[O-])cc1 under NOMO-1 viab: 13
Value for Cc1c(CCC(=O)O)c(=O)oc2cc(O)c(Cl)cc12 under NOMO-1 viab: 12

Structures shown so far that have a COOH group:
SMILES | NOMO-1 viab
Cc1c(CCC(=O)O)c(=O)oc2cc(O)c(Cl)cc12 | 12
Cc1noc(C)c1NC(=O)Nc1ccc2c(c1)C(=O)N([C@H](C)CO)C[C@H](C)[C@H](CN(C)Cc1ccc(C(=O)O)cc1)OCCCC[C@@H](C)O2 | -13

A draw from above in order of molar mass, high to low.
SMILES | NOMO-1 viab
C[C@@H]1CN([C@@H](C)CO)C(=O)Cc2cc(NS(=O)(=O)c3ccccc3)ccc2O[C@@H]1CN(C)CC1CCCCC1 | 24
CN1CCN(CCN2C(=O)c3ccccc3Sc3cc(Cl)ccc3S2(=O)=O)CC1 | -34
Cc1ccc(-n2c(SCC(=O)Nc3cccc(C)c3C)nc3ccccc3c2=O)cc1 | 15

Following part.
SMILES | NOMO-1 viab
CCSc1nnc2nc3c4ccccc4c4ccccc4c3nn12 | 0
COc1ccc(S(=O)(=O)N(C)C[C@@H]2Oc3ccc(NS(=O)(=O)c4ccc(C)cc4)cc3C(=O)N([C@@H](C)CO)C[C@@H]2C)cc1 | 24
C[C@@H]1CN([C@@H](C)CO)C(=O)c2cccc(NC(=O)c3cnccn3)c2O[C@@H]1CN(C)C(=O)Nc1ccc(C(F)(F)F)cc1 | 9
COc1ccc(C(=O)CC2(O)C(=O)N(Cc3ccc(C)cc3)c3ccc(Cl)cc32)cc1[N+](=O)[O-] (configuration not stated) | 124*
C[C@H]1CN([C@@H](C)CO)C(=O)Cc2cc(NC(=O)CCC(F)(F)F)ccc2O[C@H]1CN(C)Cc1ccc(C(F)(F)F)cc1 | 32
COc1ccc(CCNc2nc(-c3ccccn3)cs2)cc1OC | -3
OCCN1CCN(C(=S)NCc2ccco2)CC1 | 3
COc1c(Cl)cc(C(=O)Nc2ccc(S(=O)(=O)Nc3cc(C)nc(C)n3)cc2)cc1Cl | 13
C[C@H]1CN([C@@H](C)CO)C(=O)c2cc(NS(=O)(=O)c3ccccc3)ccc2O[C@H]1CN(C)Cc1ccncc1 | 18
C[C@@H]1CN([C@@H](C)CO)C(=O)c2cccc(NC(=O)Nc3ccc(F)cc3)c2O[C@@H]1CN(C)Cc1ccc2c(c1)OCO2 | 23
C[C@H](CO)N1C[C@H](C)[C@H](CN(C)Cc2ccc3c(c2)OCO3)Oc2ccc(NC(=O)Cc3cn(C)c4ccccc34)cc2C1=O | 92*
CCOc1ccc2nc(SCC(=O)Nc3ccc(Br)cc3Cl)sc2c1 | 16
COc1ccc(S(=O)(=O)N(C)C[C@H]2Oc3ccc(NC(=O)CCC(F)(F)F)cc3C(=O)N([C@@H](C)CO)C[C@@H]2C)cc1 | 2
Cc1cccc(NC(=O)C2CC(=O)n3c(nc4ccccc43)N2)c1 (configuration not stated) | 10
Cc1ccccc1Cn1ccc(NC(=O)c2nn3cccnc3c2Cl)n1 | 13
C[C@@H]1CN([C@@H](C)CO)C(=O)c2cc(NC(=O)c3ccncc3)ccc2O[C@@H]1CN(C)Cc1ccc(C(=O)O)cc1 | 2
O=C(Cn1cc(C(=O)C2CC2)c2ccccc21)Nc1ccccc1C(F)(F)F | 0
CNC[C@H]1Oc2c(NC(=O)NC(C)C)cccc2C(=O)N([C@@H](C)CO)C[C@H]1C | -3
CNC[C@@H]1Oc2ccc(NS(C)(=O)=O)cc2CC(=O)N([C@H](C)CO)C[C@H]1C | -10
C[C@@H]1CN([C@@H](C)CO)C(=O)c2cc(NS(=O)(=O)c3cccs3)ccc2O[C@@H]1CN(C)C(=O)Nc1ccc(C(F)(F)F)cc1 | -3
CNC[C@@H]1Oc2c(NC(=O)c3ccc(-c4nccs4)cc3)cccc2C(=O)N([C@@H](C)CO)C[C@H]1C | -13
COc1ccc(S(=O)(=O)Nc2ccc3c(c2)CC(=O)N([C@@H](C)CO)C[C@@H](C)[C@@H](CN(C)S(=O)(=O)c2ccccc2)O3)cc1 | 10
Cc1noc(C)c1NC(=O)N(C)C[C@@H]1Oc2ccc(NC(=O)Nc3ccccc3)cc2C(=O)N([C@H](C)CO)C[C@H]1C | -7
CCOC(=O)c1ccc(NC(=O)CC2Nc3cccc4cccc(c34)NC2=O)cc1 (configuration not stated) | 55
C[C@H]1CN([C@@H](C)CO)C(=O)c2cc(NC(=O)Cn3cnnn3)ccc2O[C@H]1CN(C)C(=O)Nc1ccc2c(c1)OCO2 | 5
COc1ccc(S(=O)(=O)Nc2cccc3c2O[C@@H](CN(C)S(=O)(=O)c2ccc(C)cc2)[C@H](C)CN([C@@H](C)CO)C3=O)cc1 | -8
Cc1ccc(S(=O)(=O)Nc2cccc3c2O[C@@H](CN(C)Cc2ccc(C(F)(F)F)cc2)[C@H](C)CN([C@H](C)CO)C3=O)cc1 | 31
Cc1ccc(S(=O)(=O)N(C)C[C@@H]2Oc3c(NC(=O)Nc4ccccc4)cccc3C(=O)N([C@H](C)CO)C[C@H]2C)cc1 | 16
C[C@@H]1CN([C@@H](C)CO)C(=O)Cc2cc(NC(=O)C3CCCCC3)ccc2O[C@@H]1CN(C)CC1CC1 | 24
COc1ccc(S(=O)(=O)N(C)C[C@@H]2Oc3c(NC(=O)Nc4cccc5ccccc45)cccc3C(=O)N([C@@H](C)CO)C[C@@H]2C)cc1 | 8

Cc1cc(C)c(OCC(O)CN2CCN(CCO)CC2)c(C)c1 (configuration not stated)
  NOMO-1 viab = -21
O=[N+]([O-])c1ccc(S(=O)(=O)NCCN2CCOCC2)cc1
  NOMO-1 viab = 4
Cc1ccc(N(CC(N)=O)S(=O)(=O)c2ccc(Cl)cc2)cc1C
  NOMO-1 viab = 30
C[C@@H]1CCCCO[C@@H](CN(C)Cc2ccc(C(=O)O)cc2)[C@@H](C)CN([C@H](C)CO)C(=O)c2cc(NC(=O)NC3CCCCC3)ccc2O1
  NOMO-1 viab = 16
CC(C)(C)c1ccc(OCC(=O)Nc2cccnc2)c(Br)c1
  NOMO-1 viab = 28
C[C@H]1CN([C@@H](C)CO)C(=O)c2cccc(NC(=O)Nc3ccccc3)c2O[C@@H]1CN(C)S(=O)(=O)c1cn(C)cn1
  NOMO-1 viab = 1
C[C@@H]1CCCCO[C@@H](CN(C)CC2CCCCC2)[C@@H](C)CN([C@H](C)CO)C(=O)c2cc(NC(=O)c3ccncc3)ccc2O1
  NOMO-1 viab = 11
CC(C)CC(NS(=O)(=O)c1cccc2nsnc12)C(=O)O (configuration not stated)
  NOMO-1 viab = 5
C[C@@H]1CN([C@H](C)CO)C(=O)Cc2cc(NC(=O)Cc3cn(C)c4ccccc34)ccc2O[C@@H]1CN(C)S(=O)(=O)c1ccc(F)cc1
  NOMO-1 viab = 17
C[C@H]1CN([C@@H](C)CO)C(=O)c2cccc(NC(=O)NC3CCCCC3)c2O[C@@H]1CN(C)C(=O)Nc1cccc2ccccc12
  NOMO-1 viab = 9
C[C@@H]1CN([C@H](C)CO)C(=O)c2cccc(NC(=O)Nc3ccccc3)c2O[C@@H]1CN(C)C(=O)Nc1cccc2ccccc12
  NOMO-1 viab = 105*
COc1ccc(COCC(O)CS(=O)(=O)c2ccc(OC)c(OC)c2)cc1 (configuration not stated)
  NOMO-1 viab = -5
C[C@@H]1CN([C@H](C)CO)C(=O)c2cc(NC(=O)Cc3ccccc3)ccc2O[C@H]1CN(C)Cc1ccc2c(c1)OCO2
  NOMO-1 viab = 6
Cc1ccc(C)c(NC(=O)C(C)N(c2ccc(C)c(C)c2)S(C)(=O)=O)c1 (configuration not stated)
  NOMO-1 viab = 10
C[C@H](CO)N1C[C@H](C)[C@H](CN(C)C(=O)Nc2ccc(F)cc2)Oc2ccc(NC(=O)CCCN(C)C)cc2C1=O
  NOMO-1 viab = -10

C[C@@H]1CN([C@@H](C)CO)C(=O)Cc2cc(NC(=O)Nc3ccc4c(c3)OCO4)ccc2O[C@@H]1CN(C)Cc1ccc(-c2ccccc2)cc1
  NOMO-1 viab = 13
Cc1ccc(C)c(S(=O)(=O)NCC(=O)Nc2ccc(F)c(Cl)c2)c1
  NOMO-1 viab = 33
COc1cccc(C(=O)COc2ccc(NC(=O)c3ccccc3C)cc2)c1
  NOMO-1 viab = 6
COc1ccc(S(=O)(=O)N(C)C[C@H]2Oc3c(NS(C)(=O)=O)cccc3C(=O)N([C@H](C)CO)C[C@H]2C)cc1
  NOMO-1 viab = 10
COc1ccc(-c2nnc(SCC(=O)Nc3ccc(Br)cc3C(C)C)o2)cc1
  NOMO-1 viab = -6
C[C@@H]1CN([C@@H](C)CO)C(=O)c2cccc(NC(=O)c3cnccn3)c2O[C@H]1CN(C)C(=O)Nc1ccc(C(F)(F)F)cc1
  NOMO-1 viab = 11
COc1ccc(S(=O)(=O)N(C)C[C@@H]2Oc3ccc(NC(=O)Nc4ccccc4)cc3C(=O)N([C@@H](C)CO)C[C@H]2C)cc1
  NOMO-1 viab = 8
Cc1cc(C)c2c(=O)[nH]c(SCC(=O)N3CCOCC3)nc2n1
  NOMO-1 viab = 4
COc1cc(O)cc(C)c1C(=O)OC1C(CO)OC(n2ccc(=O)[nH]c2=O)C1OC(C)=O (configuration not stated)
  NOMO-1 viab = 7
CNC[C@H]1Oc2ccc(NS(=O)(=O)c3ccccc3)cc2C(=O)N([C@H](C)CO)C[C@@H]1C
  NOMO-1 viab = -12
C[C@H](CO)N1C[C@H](C)[C@H](CN(C)Cc2ccc(Oc3ccccc3)cc2)Oc2c(NC(=O)c3ccc(-c4nccs4)cc3)cccc2C1=O
  NOMO-1 viab = 112*
CC(C)NC(=O)N(C)C[C@H]1Oc2c(NS(=O)(=O)c3cccs3)cccc2C(=O)N([C@@H](C)CO)C[C@H]1C
  NOMO-1 viab = 1
Cc1ccc(S(=O)(=O)N(C)C[C@H]2OCCCC[C@@H](C)Oc3ccc(NS(=O)(=O)c4ccccc4)cc3C(=O)N([C@H](C)CO)C[C@@H]2C)cc1
  NOMO-1 viab = 36

High-throughput results as filed in PubChem.
